VDR inhibitor – Inhibitors of the vitamin D receptor (VDR): qHTS; Vitamin D3 receptor (Homo sapiens), P11473; VDR-SRC2-3 peptide fluorescence polarization, 2 h; Potency, µM, for the others: max response, negative = inhibition, actives largely listed as inhibitors; actives 0.93% (n = 400,000); active = well fitted inhibition curve with a large enough effect; inconclusive = small, poorly fitted or top-dose-only effect, or another doubt; inactive = no such curve, though single readings can be large or run the other way; also: series mostly up to about 120 µM
Target sequence (P11473 whole entry, looked up): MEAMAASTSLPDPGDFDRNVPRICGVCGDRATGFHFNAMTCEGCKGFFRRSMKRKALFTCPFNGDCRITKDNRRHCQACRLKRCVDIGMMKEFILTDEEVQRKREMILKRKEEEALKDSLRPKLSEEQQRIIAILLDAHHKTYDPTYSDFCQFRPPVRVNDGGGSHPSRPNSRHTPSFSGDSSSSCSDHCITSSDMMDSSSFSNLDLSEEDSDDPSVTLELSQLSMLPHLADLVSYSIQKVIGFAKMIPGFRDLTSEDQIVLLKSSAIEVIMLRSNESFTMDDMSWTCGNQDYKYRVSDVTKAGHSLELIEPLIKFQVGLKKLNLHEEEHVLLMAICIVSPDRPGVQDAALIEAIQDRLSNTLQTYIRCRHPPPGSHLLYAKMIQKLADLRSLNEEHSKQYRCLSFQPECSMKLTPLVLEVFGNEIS
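Signal is fluorescence polarization, reporting how far test compounds block the interaction of VDR with the SRC2-3 coregulator peptide after a 2 h room-temperature incubation.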
* hit, by the source's call; ? = inconclusive; & = joins results of further samples; [ ] = another dose, or the depositor's remark. % is scaled to controls: 0 for no effect and ±100 for the full control effect; potency is read from the fitted curve at half-maximal effect. Not all compounds are listed (hit frequency here may not be typical).

Structure,VDR inhibitor
O=C(CCn1c(=S)[nH]c2cc3c(cc2c1=O)OCO3)NCc1cccc(Cl)c1,-18%
CC(=O)COc1ccc2c(-c3ccccc3)cc(=O)oc2c1,6%
COc1ccccc1N1CCN(S(=O)(=O)c2cc3[nH]c(=O)c(=O)[nH]c3cc2C)CC1,-23%&-3%
CC(C)C12CN3CC(C(C)C)(CN(C1)C3(C)C)C2=O,-7%
COc1ccc(C2CC(c3ccc(F)cc3)=NN2c2ccccc2)cc1OC (stereo unspecified),-21%
COc1cccc(NC(=O)CN(C)C(=O)CCSc2ccc(C)cc2)c1,-4%
O=C(CP(=O)(c1ccccc1)c1ccccc1)N/N=C/c1cc(Br)cc(Br)c1O,6%
Cc1cccc(C)c1NC(=O)NC1CC2CCC(C1)N2Cc1cccs1 (stereo unspecified),17%
CCC(CC)NC(=O)COC(=O)c1ccc(OCc2ccc(C(C)=O)cc2OC)c(OC)c1,1%
O=C(C[n+]1cccc(CNC(=O)c2ccc(OC(F)F)cc2)c1)Nc1ccccc1Cl,9%
CCOC(=O)c1ccc(NC(=O)c2ccc(NC(=O)c3ccccc3)cc2)cc1,-4%
O=C(CCCC(=O)OCC(=O)c1cccs1)Nc1ccc(F)cc1,-2%
CCc1c(C)nc(SCC(=O)N2C(C)CCCC2C)[nH]c1=O (stereo unspecified),6%
CC(Cc1cnccn1)NC(=O)c1cc(COc2ccc(F)cc2F)on1 (stereo unspecified),-16%
O=C(O)CCC(=O)N1CCC(n2nnc3cc(C(F)(F)F)ccc32)CC1,1%
Cc1cc(NC(=O)c2cccs2)ncc1NC(=O)C(C)(C)C,-21%
CC(C)CCN1CC(C(=O)NCc2ccc(F)cc2)CC1=O (stereo unspecified),-3%
CCOc1ccc(N(CC(=O)Nc2ccccc2Cl)S(C)(=O)=O)cc1,8%
O=C(C1=C[C@@H](C2CC2)C[C@@H](OCc2ccc(CO)cc2)O1)N1CCN(Cc2ccccc2)CC1,10%
COc1cc(/C=C2/C(=N)N3N=C(CC(=O)N4CCOCC4)SC3=NC2=O)ccc1OCc1ccccc1,-13%
CCCN1C(=O)/C(=C/c2ccc(C)o2)SC1=Nc1ccc(OCC)cc1,2%
CC(=O)Nc1ccc(S(=O)(=O)N2CCSC2c2ccc(Cl)cc2)cc1 (stereo unspecified),-4%
Cc1cc(Cl)ccc1OCC(=O)NNC(=O)C1CCN(c2ncnc3sc(C)c(C)c23)CC1,7%
O=C(Cc1ccccc1)NC(=S)Nc1ccc(N2CCCCC2)cc1,4%
Cc1cc(C)n(C(C)CC(=O)NCc2ccccc2C)n1 (stereo unspecified),11%
Cc1cccc(CNc2ncnc3ccc(-c4ccccc4CN(C)C)cc23)c1,7%
Cc1cc(=O)nc2c3ccccc3n(CC(=O)NC3CCCCC3)n12,0%
O=C1NN(c2ccccc2)C(=O)/C1=C\c1cccn1-c1ccc(Cl)c([N+](=O)[O-])c1,-12%
CC(=O)N1CC[C@@H]2CC(=O)C[C@@H](C)[C@@H]21,3%
Cc1cc(=O)[nH]c(S/C=C/c2ccccc2)n1,-17%
CCN(CC)CCn1c2c(c(SCC(=O)Nc3cc(C)cc(C)c3)nc1=O)CCC2,2%
CC(C)(C)c1ccc(S(=O)(=O)NNC(=O)c2cc3ccccc3[nH]2)cc1,-8%
Cc1ccc(C2C(C#N)=C(N)OC3=C2C(=O)CC(C)(C)C3)s1 (stereo unspecified),-19%
CC1(C)CO[C@H](CC(=O)O)CN1,12%
CC(=O)N1CCN(c2nc(N)c(C#N)c(CC#N)c2C#N)CC1,?
Cc1cc(NCc2ccco2)n2ncnc2n1,-4%
O=C(COC(=O)Cc1c(Cl)cccc1Cl)NCC1CCCO1 (stereo unspecified),-4%
CCc1cc(C(=O)N2CCOCC2)c(NC2=NS(=O)(=O)c3ccccc32)s1,5%
CC(C)OC(=O)[C@H]1O[C@H](CCCCOCc2ccccc2)[C@@H](C)[C@H]2O[C@H]21,3%
COc1ccccc1CN1CCNC(=O)C1CC(=O)O (stereo unspecified),15%
CCCC1=C(C(=O)OCC)C(/C=C/c2ccccc2)n2ncnc2N1 (stereo unspecified),3%
O=C(CCn1ccc([N+](=O)[O-])n1)Nc1nccs1,-111%
CN(C)C(=O)c1ccc(-c2nc(Nc3ccc(F)cc3)c3ccccc3n2)cc1,-1%
COc1ccc(N2CCN(C(=O)c3ccc(NS(=O)(=O)c4ccccc4)cc3)CC2)cc1,2%
N#Cc1c(N(CCO)CCO)nc(N)c2c(N)nc3c(c12)CC(=O)N3CC1CCCO1 (stereo unspecified),-8%
COc1cc(OC)cc(C(=O)NCc2n[nH]c(=S)n2-c2ccccc2)c1,3%
CC(=O)NCCC(=O)Nc1cc(F)ccc1C,-10%
CC(=O)OC1COC(N2CCc3ccccc32)C(OC(C)=O)C1OC(C)=O (stereo unspecified),8%
COc1cccc(CNC(=O)c2c(C)oc3nc(C)nc(N4CCOCC4)c23)c1,14%
Cc1cc(C(=O)OCC(=O)NC2CCCCC2C)c2ccccc2n1 (stereo unspecified),-7%
COc1ccc(-c2cn3c(n2)CCC3)cc1,6%
CCNC(=O)N(C)C[C@H]1N[C@@](CC)(C(=O)OC)[C@H]2C(=O)N(C)C(=O)[C@@H]12,-4%
CC(=O)OCC=C1CCC2C3CCC4=CC(=O)CCC4(C)C3C(O)CC12C (stereo unspecified),?
COC(=O)c1cccc(N2CCCC2=O)c1,2%
O=C(COC(=O)/C=C/c1ccc([N+](=O)[O-])cc1)NCc1cccs1,-6%
CCOC(=O)N1CCN(C(=O)CN(Cc2ccccc2)S(C)(=O)=O)CC1,1%
CN(C)S(=O)(=O)c1ccc(N2CCCC2)c(C(=O)N2CCN(S(=O)(=O)c3ccccc3F)CC2)c1,-1%
CN(CCC#N)C(=O)COC(=O)c1ccccc1OCc1ccccc1Cl,9%
CCOC(=O)c1noc(C)c1C(=O)Nc1nc(C)cc(C)n1,0%
O=c1c(Cc2c(F)cccc2Cl)c(O)ccn1C1CC1,0%

The listing continues:
mol	VDR inhibitor
Cc1cc(C)cc(NC(=O)CSc2nnc(-c3ccncc3)o2)c1	-1%
Cc1nnc(SCC(=O)c2ccc(S(=O)(=O)N3CCOCC3)cc2)n1-c1ccccc1	?
COc1ccc(-c2nnn(CC(=O)N(CC(=O)NCCC(C)C)c3ccccc3)n2)cc1OC	-3%
O=C(O)C1CC(=O)N(C2CCCCCC2)C1 (stereo unspecified)	-6%
COc1cccc(NC(=O)COc2ccc(S(=O)(=O)NC(C)C)cc2)c1	3%
O=C1OC[C@@H]2CCCN2C(=O)[C@H](CC(=O)N(CCO)Cc2ccccc2)C/C=C\CC[C@@H]1Cc1ccc(F)cc1	2%
COc1cc(OC)cc(-c2nc3nc(C)c(CCC(=O)Nc4ccc(C)cc4C)c(C)n3n2)c1	-10%
CCOc1ccc(N2CC(C(=O)Nc3ccccc3N3CCCC3)CC2=O)cc1 (stereo unspecified)	20%
COC(=O)C1C(c2ccccc2)C=CC(c2ccccc2)C1C(=O)O (stereo unspecified)	-2%
COc1cc(C(C)=O)ccc1OCC(=O)NCCCn1nc(C)cc1C	-5%
Cc1ccccc1NC(=O)CCC(=O)N/N=C/c1cc([N+](=O)[O-])ccc1O	-17%
COc1ccccc1CNc1ccnc(-c2c(C)noc2C)n1	?
COc1cc(/C=N/N2CCN(C3c4ccccc4-c4ccccc43)CC2)cc(OC)c1O	-8%
Cc1nnc(C)c2c(C)n(C(c3ccccc3)c3ccccc3)c(C)c12	7%
CSc1ncc(C(=O)N2CCN(c3cccc(C(F)(F)F)c3)CC2)c(C)n1	9%
Cc1ccc(NC(=O)C2CCCO2)cc1[N+](=O)[O-] (stereo unspecified)	0%
COc1ccc(C(=O)N2CC3(CC(c4cccc(NC(=O)COc5ccc(Cl)cc5)c4)=NO3)C[C@@H]2C(N)=O)cc1 (stereo partly specified)	6%
COc1cccc2cc(C(=O)Nc3cccnc3N3CCOCC3)c(=O)oc12	23%
CC(=O)Nc1ccc(NC(=O)CSc2ccc(-c3sc(C)nc3C)nn2)cc1	9%
O=c1c(-c2cccs2)nc2cnc(N3CCOCC3)nc2n1CCc1ccccc1	-10%
O=S(=O)(/N=C(/Nc1nccs1)c1ccc(F)cc1)c1ccccc1	-9%
COc1ccc(C)cc1Nc1n[n+](C)c(-c2c3ccccc3cc3ccccc23)s1	-4%
Cc1ccc2oc(C(=O)N(C)CCC(O)c3ccccc3)c(C)c2c1 (stereo unspecified)	0%
Cc1ccc(C(=O)N2CCCC2)cc1S(=O)(=O)N1CCOCC1	-4%
O=C(c1ccc2ccccc2c1)N1CCN(c2ccc(C(F)(F)F)cn2)CC1	22%
COc1ccc(OCC(=O)Nc2ccc(N3CCCCC3)cc2)cc1	?
COc1ccc(NC(=O)CN(C)CC(=O)Nc2ccccc2SC)cc1	-10%
CCOc1cc(N2CCOCC2)c(OCC)cc1NC(=O)COC(=O)CCOc1ccc(C(C)(C)C)cc1	-17%
O=C(O)c1cc2cc(Cl)cc(Cl)c2oc1=O	-5%
NC(=O)CNC(=O)c1ccc(Cl)cc1	-2%
O=C(CSc1n[nH]c(-c2cccs2)n1)N1CCOCC1	-7%
Cc1sc(NC(=O)/C=C/c2ccco2)c(C(=O)OC(C)C)c1C	-17%
COc1ccc(NC(=O)CSc2ccc(-c3sc(C)nc3C)nn2)cc1OC	5%
CC(C)[C@H](NC(=O)N1CC(=O)Nc2ccccc21)C(=O)N1CCC[C@H]1C(=O)O	-11%
CCCCCn1c(CCCNC(=O)c2cccc(C)c2)nc2ccccc21	8%
Cc1ccc(F)cc1NC(=O)CCSc1nc(-c2ccco2)cc(C(F)(F)F)n1	8%
Cc1ccccc1OCCC(=O)OCC(=O)NC1CCS(=O)(=O)C1 (stereo unspecified)	-4%
O=C(NNC1CC(=O)N(c2ccc(Cl)cc2)C1=O)c1ccco1 (stereo unspecified)	9%
Cn1c(=O)n(C)c2cc(N3CCCCC3)c(NC(=O)c3ccc(C(C)(C)C)cc3)cc21	4%
CCC(C)N1CC(C(=O)O)CC1=O (stereo unspecified)	-2%
CCCCN(C)Cc1c(C)[nH]c2ccc(OCC)cc2c1=O	8%
C=CCSc1nnc2c(n1)OC(c1ccco1)Nc1ccccc1-2 (stereo unspecified)	-13%
COc1ccc(C2(C)NC(=O)N(CC(=O)Nc3ccc4ccccc4c3)C2=O)cc1OC (stereo unspecified)	9%
C=CCOc1ccc(C(=O)Nc2ccc(OCC)cc2)cc1	-8%
COC(=O)c1sc(N2C(=O)C(O)=C(C(=O)c3ccc(C)o3)C2c2cccs2)nc1C (stereo unspecified)	-15%
O=[N+]([O-])c1ccc2c(c1)C(N1CCOCC1)/C(=C/C1(O)CCCCC1)O2 (stereo unspecified)	-18%
COc1ccc(Cn2nnnc2C(c2ccc(C)cc2)N2CCN(C3CCCC3)CC2)cc1 (stereo unspecified)	-7%
COc1ccc(CCC(=O)Nc2ccccc2C(F)(F)F)cc1	-3%
O=C(NCc1ccco1)c1cc(-c2cccnc2)nc2ccc(Cl)cc12	-2%
COc1ccc(S(=O)(=O)N2CCN(c3cccc(C)c3C)CC2)c2ccccc12	3%
CC1C(=O)C(C)C(c2ccc([N+](=O)[O-])cc2)NC1c1ccc([N+](=O)[O-])cc1 (stereo unspecified)	-15%
CC(=O)Cc1nsc(NC(=O)c2ccc(F)cc2)n1	-6%
COc1cc(CN2CCC(n3nccc3NC(=O)c3ccccc3OC)CC2)ccc1F	2%
O=C(Cc1cccs1)N1CCN(c2ccc(F)cc2)CC1	33%[activator]
CC(C)CCNC(=O)c1cc2c(=O)n3ccccc3nc2s1	7%
CC1CCN(CCC(=O)Nc2ccc(Br)cc2)CC1	14%
Oc1ccccc1-c1cc(-c2ccc(Cl)cc2)n[nH]1	-6%

By substructure: the entries above with an aryl thioether with sulfur outside any ring (13)
mol	VDR inhibitor
COc1cccc(NC(=O)CN(C)C(=O)CCSc2ccc(C)cc2)c1	-4%
CCc1c(C)nc(SCC(=O)N2C(C)CCCC2C)[nH]c1=O (stereo unspecified)	6%
Cc1cc(=O)[nH]c(S/C=C/c2ccccc2)n1	-17%
CCN(CC)CCn1c2c(c(SCC(=O)Nc3cc(C)cc(C)c3)nc1=O)CCC2	2%
Cc1cc(C)cc(NC(=O)CSc2nnc(-c3ccncc3)o2)c1	-1%
Cc1nnc(SCC(=O)c2ccc(S(=O)(=O)N3CCOCC3)cc2)n1-c1ccccc1	?
CSc1ncc(C(=O)N2CCN(c3cccc(C(F)(F)F)c3)CC2)c(C)n1	9%
CC(=O)Nc1ccc(NC(=O)CSc2ccc(-c3sc(C)nc3C)nn2)cc1	9%
COc1ccc(NC(=O)CN(C)CC(=O)Nc2ccccc2SC)cc1	-10%
O=C(CSc1n[nH]c(-c2cccs2)n1)N1CCOCC1	-7%
COc1ccc(NC(=O)CSc2ccc(-c3sc(C)nc3C)nn2)cc1OC	5%
Cc1ccc(F)cc1NC(=O)CCSc1nc(-c2ccco2)cc(C(F)(F)F)n1	8%
C=CCSc1nnc2c(n1)OC(c1ccco1)Nc1ccccc1-2 (stereo unspecified)	-13%

Already shown: 2 of the compounds above.
mol	VDR inhibitor
O=C(CSc1n[nH]c(-c2cccs2)n1)N1CCOCC1	-7%
Cc1sc(NC(=O)/C=C/c2ccco2)c(C(=O)OC(C)C)c1C	-17%
